# Screening data: PubChem BioAssay, National Center for Advancing Translational Sciences (NCATS)
# hNpr1 antagonist = Natriuretic polypeptide receptor (hNpr1) antagonism - Primary qHTS; Atrial natriuretic peptide receptor 1 (Homo sapiens), P16066; HEK293 hNpr1 GloSensor cGMP, ANP-stimulated luminescence; Potency, µM (titrated, usually from 46.3 µM), for the others: top-dose activity change, negative = inhibition, usual class: inhibitors; hit rate 1.6% among 76,000; AID 1347048, 2019; active = well fitted inhibition curve with a large enough effect; inconclusive = small, poorly fitted or top-dose-only effect; inactive = no such curve, though single readings can be large or run the other way;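 further: nearly all actives have a fitted effect of over 60% in size; nearly all hits also lower the signal before the agonist is added; a reference antagonist and vehicle were the controls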
# Target sequence (P16066 whole entry, looked up): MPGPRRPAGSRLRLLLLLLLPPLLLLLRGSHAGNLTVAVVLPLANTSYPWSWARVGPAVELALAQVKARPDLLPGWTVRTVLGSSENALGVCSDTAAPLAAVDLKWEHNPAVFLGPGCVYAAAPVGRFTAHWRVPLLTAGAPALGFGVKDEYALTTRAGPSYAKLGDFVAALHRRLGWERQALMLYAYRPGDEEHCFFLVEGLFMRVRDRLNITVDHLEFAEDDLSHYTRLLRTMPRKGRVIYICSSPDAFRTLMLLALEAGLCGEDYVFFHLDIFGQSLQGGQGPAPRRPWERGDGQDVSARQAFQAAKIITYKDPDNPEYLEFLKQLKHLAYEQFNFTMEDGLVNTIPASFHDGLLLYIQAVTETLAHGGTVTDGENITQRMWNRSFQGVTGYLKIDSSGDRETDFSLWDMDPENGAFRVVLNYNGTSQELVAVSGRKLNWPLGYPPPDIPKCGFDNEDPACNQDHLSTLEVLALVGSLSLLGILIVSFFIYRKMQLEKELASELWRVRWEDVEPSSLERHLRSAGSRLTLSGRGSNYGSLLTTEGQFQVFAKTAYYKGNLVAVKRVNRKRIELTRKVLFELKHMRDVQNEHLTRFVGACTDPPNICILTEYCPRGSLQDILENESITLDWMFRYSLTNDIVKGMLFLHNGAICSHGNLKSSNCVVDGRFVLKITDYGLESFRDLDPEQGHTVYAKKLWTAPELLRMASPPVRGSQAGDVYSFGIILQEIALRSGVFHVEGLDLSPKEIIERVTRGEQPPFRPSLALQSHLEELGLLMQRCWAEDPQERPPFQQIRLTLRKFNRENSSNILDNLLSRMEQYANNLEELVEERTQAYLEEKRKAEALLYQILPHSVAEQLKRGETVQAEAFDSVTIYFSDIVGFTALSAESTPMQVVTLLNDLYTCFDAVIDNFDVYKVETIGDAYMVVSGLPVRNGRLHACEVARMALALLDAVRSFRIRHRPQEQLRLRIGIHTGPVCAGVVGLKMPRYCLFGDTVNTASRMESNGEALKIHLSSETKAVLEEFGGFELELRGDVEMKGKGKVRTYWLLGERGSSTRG
#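 Compound pre-incubated 30 min at room temperature on GloSensor-loaded HEK293 cells stably carrying hNpr1 and the pGS-40F cGMP biosensor. Stimulation uses hNppA at 0.1 nM final; luminescence is taken at baseline and 20 min post-agonist.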
# Active calls of the source: *; ? = inconclusive; [ ] = remark or other dose. On the % scale 0 is the no-effect control and ±100 the full control effect; potency means the concentration at half of the fitted maximal effect. These rows are one share of the data; count on the stated rates, not on these rows.
SMILES	hNpr1 antagonist
COc1ccc(NC(=O)C2(C)CN(C)Cc3ccc(NCc4ccccc4)nc32)cc1 (stereo unspecified)	-17%[70.6 µM]
Cc1cccc(-n2nc(C)c(CCC(=O)N3CCSCC3)c2Oc2ccccc2)c1	-25%
Cc1ccc(-n2nc(-c3c(C)nc4scc(CC(=O)NCc5ccccc5)n4c3=O)cc2C)cc1	-10%
N#Cc1cccc(-c2ccnc(N[C@H]3CO[C@H]4[C@@H]3OC[C@@H]4NC(=O)C3CCCCC3)n2)c1	1%[70.6 µM]
Cc1cc(C)cc(NC(=O)N2CCCC(Cn3c(C4CC4)nc4cccnc43)C2)c1 (stereo unspecified)	3%
CCCCS(=O)(=O)N1CCC(F)(c2nc(-c3ccccc3)no2)CC1	-2%
CC(c1cccs1)N(C)C(=O)c1ccc(C(F)(F)F)cc1 (stereo unspecified)	9%[70.6 µM]
COc1ccc(C(=O)N2CCC(N3C(=O)C(O)C34CCCCC4)CC2)c(OC)c1 (stereo unspecified)	0%
CC(C)CCN1CCC(N2CCN(C(=O)c3cc(F)cc(F)c3)CC2)C1=O (stereo unspecified)	3%
O=C(Nc1cccnc1)c1ccc2c(c1)OCCN(Cc1ncccn1)C2	3%[70.6 µM]
Cc1nc(CCNc2cc(C3CC(O)C3)nc(N)n2)nc2c1CCC2 (stereo unspecified)	0%
Cc1cc(C)cc(C(=O)NC2CCN(c3cc(-c4ccc(F)cc4)[nH]n3)CC2)c1	2%
COc1ccc(N2C(=O)CN(C(=O)c3cc(F)c(F)cc3F)CC2(C)C)cc1	-8%
CCc1noc(-c2cn(C3CCN(C(=O)COc4ccccc4)C3)nn2)n1 (stereo unspecified)	-9%
CC(C)Oc1ccc2c(NC(=O)[C@H]3CCC(=O)N3)nn(Cc3ccccc3)c2c1	-2%
CCn1ccc(C(=O)N2C[C@@H](Oc3cccnc3)C[C@H]2C(=O)N2CCOCC2)n1	6%
CC1(c2ccccc2)N(Cc2ncccn2)C(=O)OC12CCN(C(=O)Cc1ccc(Cl)cc1)CC2 (stereo unspecified)	7%
O=C([C@H]1C[C@@H](F)CN1C(=O)c1ccc(Cl)cc1)N1CCOCC1	-2%
CCC1Oc2ccc(NC(=O)COc3ccccc3)cc2CN(Cc2cc(F)cc(F)c2)C1=O (stereo unspecified)	-2%
CCc1ccc(C2CC(C(=O)NC(C)c3ccccc3)CN(C(=O)c3ccoc3)C2)cc1 (stereo unspecified)	-16%
Cc1cccc(C(=O)N2CCC3(CC2)c2nc[nH]c2CCN3CC(C)C)n1	1%
COc1cc(NC(=O)N[C@H](C)c2onc(-c3ccccc3)c2C(=O)O)cc(OC)c1	5%[70.6 µM]
CCOc1ccc(CC(=O)N[C@@H]2CN(c3ncccn3)C[C@H]2CN(C)C)cc1	6%
CCOc1ccc(C(=O)NCCn2ccn3nc(-c4cc(C)ccc4C)cc3c2=O)cc1	2%
CC(=O)Nc1cccc(C(=O)NC2CCCN(c3cc(-c4ccccc4)[nH]n3)C2)c1 (stereo unspecified)	-12%
COc1ccc(-c2noc([C@@H]3C[C@H](NC(=O)c4ccc(C#N)cc4)CN3C)n2)cc1	4%[70.6 µM]
COc1ccc(C(=O)N2CCN(C(=O)c3nnn4c3COC(c3ccc(F)cc3)C4)CC2)cc1F (stereo unspecified)	?
CN1CCN(c2nccc3c(=O)cc(N(C)C4CCOCC4)oc23)CC1	-1%[70.6 µM]
COCCOCc1nc(C2CCN(C(=O)c3cc(C)n(C)n3)C2)no1 (stereo unspecified)	1%
CNC(=O)[C@@H]1CN(C(=O)c2ccc3ncccc3c2)C[C@H]1COC	-27%
O=C(O)C[C@@H]1CCN(C(=O)c2ccco2)C[C@@H]1CCN1CCN(c2ccc(F)cc2)CC1	1%
CCCN(CC1CCOC1)S(=O)(=O)c1ccccc1C(F)(F)F (stereo unspecified)	2%
COc1ccc(CN(CC2CCCO2)C(=O)C2CCN(CC(N)=O)CC2)cc1 (stereo unspecified)	0%
CN(C)C[C@@H]1CN(c2ncccn2)C[C@H]1NC(=O)c1ccc(Cl)s1	1%
CC(=O)NC[C@@H]1C=C(C)[C@H](CC(=O)N2CCCC2)C[C@H]1C(C)C	-1%[70.6 µM]
CCc1nc(-c2c3n(c(=O)n(CC(=O)Nc4ccc(Cl)cc4F)c2=O)CCCC3)no1	7%
CNC(=O)C1CN(c2ccc(OC)cc2)C(=O)N1 (stereo unspecified)	14%[70.6 µM]
CCCCN1C(=O)[C@@H]2C[C@@H](O)CN2C2(CN(Cc3cnc4ccccc4c3)C2)C1=O	2%[70.6 µM]
CCOc1ccccc1NC(=O)N1CCC(=O)N(CC)C2(CCOCC2)C1	0%
Cc1ccc(S(=O)(=O)N2CCC(Oc3ncccc3C(=O)N3CCOCC3)C2)cc1 (stereo unspecified)	0%
COc1ccc(C(=O)N2CCCC2c2nc(CCOc3cccc(C)c3)no2)cn1 (stereo unspecified)	-1%
COc1ccc(C(=O)N2CCC3(CC2)CC(CO)N(C(=O)c2ccccc2)C3)cc1F (stereo unspecified)	2%
O=C(c1cccc(C(F)(F)F)c1)N1CCCN(c2nnc3ccc(Cl)cn23)CC1	-4%
CN1CCN(c2ccc3nnc(C4CCC4)n3n2)CC1	9%
CCc1noc(-c2ccn3c(CNC(=O)C4CCC4)nnc3c2)n1	-1%

# The last 7 entries of the part above are carried over, then new ones follow.
molecule	hNpr1 antagonist
CCOc1ccccc1NC(=O)N1CCC(=O)N(CC)C2(CCOCC2)C1	0%
Cc1ccc(S(=O)(=O)N2CCC(Oc3ncccc3C(=O)N3CCOCC3)C2)cc1 (stereo unspecified)	0%
COc1ccc(C(=O)N2CCCC2c2nc(CCOc3cccc(C)c3)no2)cn1 (stereo unspecified)	-1%
COc1ccc(C(=O)N2CCC3(CC2)CC(CO)N(C(=O)c2ccccc2)C3)cc1F (stereo unspecified)	2%
O=C(c1cccc(C(F)(F)F)c1)N1CCCN(c2nnc3ccc(Cl)cn23)CC1	-4%
CN1CCN(c2ccc3nnc(C4CCC4)n3n2)CC1	9%
CCc1noc(-c2ccn3c(CNC(=O)C4CCC4)nnc3c2)n1	-1%
CCc1nncn1C1CCN(S(=O)(=O)c2ccccc2C)CC1	-9%
CN(C)C[C@@H]1CN(Cc2ccccc2)C[C@H]1NC(=O)c1cnco1	-3%
O=C(c1nc(-c2cccnc2)c2cnccn12)N1CCN(c2ncccn2)CC1	1%
O=C(COc1ccc(F)cc1)N1CCC(n2cc(-c3nc(-c4ccccc4)no3)nn2)CC1	-13%
COCC1CN(Cc2ccc(OC)c(OC)c2Cl)CC12CCNCC2 (stereo unspecified)	1%
COc1ccc(C(=O)NCC2Cn3cccc3C(=O)N2Cc2ccccc2)cc1OC (stereo unspecified)	-12%
CN(C)C(=O)c1cccnc1OC1CCN(C(=O)c2cccc(Cl)c2)C1 (stereo unspecified)	-2%
CC1Oc2ccc(NC(=O)c3c(F)cccc3F)cc2CN(CCc2ccc(F)cc2)C1=O (stereo unspecified)	-2%
Cc1ccc(NC(=O)N2C[C@@H](F)C[C@H]2C(=O)N2CCc3ccccc3C2)cc1F	-1%
CC#CCn1cc2c3c(cccc31)[C@H](CC(C)C)N[C@H](C(=O)N1CCN(CCOC)CC1)C2	2%
CCn1ncnc1C1CC(=O)Nc2cc(OC)c(NS(C)(=O)=O)cc21 (stereo unspecified)	-6%
O=C(NCc1csc2ccc(Cl)cc12)C1CC2(CCNCC2)CN1 (stereo unspecified)	-2%
CCc1noc(-c2cn(C3CCN(C(=O)c4ccccc4)CC3)nn2)n1	2%
O=C(CN1C(=O)C(c2ccccc2)=NC12CCCC2)NCCC1=CCCCC1	6%
CC(C)c1noc(-c2cccn3c(CNC(=O)c4ccc(C(C)(C)C)cc4)nnc23)n1	0%
CCC(O)Cn1nc(C2CCOCC2)nc1C1(C(N)=O)CC1 (stereo unspecified)	-1%
Cc1ccc(-c2noc([C@@H]3CCCN3C(=O)c3ccc(C(C)C)cc3)n2)cc1	4%
COc1ncccc1-c1nccn2c(C3CN(Cc4ccccc4O)C3)ncc12	5%[70.6 µM]
COc1cc(OC)cc(C(=O)N2CCC(Cc3nc(C(C)C)no3)CC2)c1	-16%
COCCCNC(=O)c1ccc2c(c1)n(Cc1ccccc1)c(=O)c1ccnn12	8%
O=C1[C@@H]2C[C@@H](O)CN2C2(CN(Cc3ccccn3)C2)C(=O)N1Cc1ccccc1F	-1%[70.6 µM]
NC(=O)c1ccc(CC2CCN(S(=O)(=O)c3ccc4c(c3)CCC4)CC2)cc1	?
CN1CCCC2(C1)CN(Cc1cccnc1)c1ccc(C(=O)NCC3CCCCC3)cc12 (stereo unspecified)	1%[70.6 µM]
C=CCS(=O)(=O)N1CCCC1C(=O)Nc1ccccc1-c1ccc(OC)cc1 (stereo unspecified)	-2%
Cc1ccc(CNC(=O)c2ccc3c(c2)CN(Cc2ccncc2F)CCO3)cc1	?
CC(=O)N1CCN(C(=O)CCc2nc3ccc(F)cc3[nH]2)CC(O)C1 (stereo unspecified)	12%
CCNc1ncc(C(=O)NC2CC(c3nnc(CO)n3CC)C2)cn1 (stereo unspecified)	22%
CCNC(=O)N1CCc2cc(OC)c(OC)cc2C1CNC(=O)c1ccc(C)cc1 (stereo unspecified)	4%
O=S(=O)(c1cccs1)N1CCC(n2cnnc2-c2ccccc2)CC1	-1%
COc1ncc(CN2CCc3ncc(C(=O)Nc4ccccc4)n3CC2)cn1	-1%[70.6 µM]

# Filtered by structure, the compounds so far with a cyano group
molecule	hNpr1 antagonist
N#Cc1cccc(-c2ccnc(N[C@H]3CO[C@H]4[C@@H]3OC[C@@H]4NC(=O)C3CCCCC3)n2)c1	1%[70.6 µM]
COc1ccc(-c2noc([C@@H]3C[C@H](NC(=O)c4ccc(C#N)cc4)CN3C)n2)cc1	4%[70.6 µM]

# Later entries.
molecule	hNpr1 antagonist
COc1ccc2c(c1)OCC(CNC(=O)c1cnn3ccccc13)C2 (stereo unspecified)	23%
O=C(c1ccncc1)N1CCC2(CC1)N=C(c1ccccc1)NO2	4%
O=C(Cc1c[nH]c2ncc(-c3ccccc3)cc12)NC1CCOCC1	-9%[70.6 µM]
O=C(NCCc1ccccc1)[C@@H]1C[C@@H](c2ccc(F)cc2)N([S+](=O)([O-])c2cccnc2)C1	-9%
Cc1nonc1OCCNC(=O)[C@H]1CNC[C@@H](C(=O)N2CCOCC2)C1	2%
CC(C)C(=O)NC1CCN(c2cn[nH]c(=O)c2)CC1	6%
O=C(Cc1ccc(F)cc1)N1CCC(c2n[nH]c(=O)n2-c2ccccc2)CC1	3%
O=C(c1n[nH]c2ccccc12)N1CC(c2nc(CCOCC3CC3)no2)C1	-3%
Cc1ccc(-c2nc(C(=O)NCc3ccc(F)cc3F)no2)cc1	9%
O=C(CC1CCCC1)N1CCCCCC1c1nc(-c2cccnc2)no1 (stereo unspecified)	0%
Cn1ccnc1CNCC1(COc2ccc(C(F)(F)F)cn2)C[C@@H](O)[C@@H](O)C1 (stereo partly specified)	5%
Cc1ccc(C(=O)N2CCC3(CC2)CCN(CCc2ccccc2)c2ccccc2O3)cc1	10%
Cc1nc(CN2C(=O)OC3(CCN(C(=O)Cc4ccccc4)CC3)C2(C)c2ccccc2)cs1 (stereo unspecified)	0%
CO[C@@H]1CO[C@H]2[C@@H]1OC[C@@H]2NC(=S)Nc1ccc(Cl)cc1	-1%[70.6 µM]
COc1ccc(CNC(=O)[C@H]2O[C@H](CCN(C)CCc3ccccc3)CC[C@@H]2O)cc1	0%[70.6 µM]
O=C(c1ccccc1Cl)N1CCCC2(C1)NC(=O)N(Cc1ccccc1)C2=O (stereo unspecified)	-2%
O=C1NC(C(=O)N2CCN(Cc3ccc(F)cc3F)CC2)Cn2cccc21 (stereo unspecified)	5%
CC(=O)N1CC2(Cc3ccccc31)CN(C(=O)c1ccccc1C)C2	2%[70.6 µM]
N#Cc1ccc(S(=O)(=O)N2CC(n3cc(C(=O)NCc4ccccc4)nn3)C2)cc1	4%
O=C(NCCC1CCN(C(=O)Nc2ccccc2F)CC1)C1CCCC1	2%
Cc1ccc(C)c(C(=O)N2CCC3(CC2)NC(=O)N(c2cccc(F)c2)N3)c1	-12%
COCCN1CCCC2(CCN(C(=O)c3ccccc3)C2)C1 (stereo unspecified)	3%
COc1ccc(-c2nc(C(C)C)nc3c2CCN(C(=O)Cc2ccccn2)CC3)cc1	-2%
CCc1nnc(CN(CC)C(=O)c2cc(S(N)(=O)=O)ccc2F)o1	7%
COc1ccc(CN2CC[C@@H](CO)N(C)c3nc(C)ccc3C2)cc1	-1%[70.6 µM]
CCc1ccc(C(=O)N2CCCC(c3nccn3Cc3ccncc3)C2)s1 (stereo unspecified)	1%
O=C(c1cccc2[nH]ccc12)N1CCC(N2C(=O)C3(CCCCC3)C2c2ccncc2)CC1 (stereo unspecified)	10%
CCc1ccc(S(=O)(=O)N(C)CC2CCOC2)cc1 (stereo unspecified)	-10%
CNC(=O)c1cc[nH]c1C1CCCN(C(=O)c2ccc(OC)nc2)C1 (stereo unspecified)	1%
COc1ccc(C(=O)N2CCC(Oc3ccc(C(=O)N(C)C)cn3)CC2)cc1	-8%
COc1cccc(S(=O)(=O)N2CCC3(CC2)CC(CC(=O)NC2CC2)CCO3)c1 (stereo unspecified)	-22%
Cc1ccc([S+](=O)([O-])N2CCCN(c3nc4ncccc4o3)CC2)cc1	5%
COc1ccc(C(=O)N[C@@H]2CN(C(=O)Nc3ccc(F)cc3)CCC[C@H]2O)cc1	-15%[70.6 µM]

# A draw from above in order of SMILES length, rising.
molecule	hNpr1 antagonist
CCc1ccc(S(=O)(=O)N(C)CC2CCOC2)cc1 (stereo unspecified)	-10%
Cc1nonc1OCCNC(=O)[C@H]1CNC[C@@H](C(=O)N2CCOCC2)C1	2%
Cc1ccc(C(=O)N2CCC3(CC2)CCN(CCc2ccccc2)c2ccccc2O3)cc1	10%
